Compound activity deposited in PubChem BioAssay by several laboratories.
RecA splice inh: inhibitors of M. tuberculosis RecA intein splicing; P9WHJ3; cell-free RecA intein splicing, fluorescence; inhibition, %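 (about 9 µM by stock and volumes)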; hit rate 0.75% among 290,000; AID 2221; in the data active means inhibition above about 30%; inconclusive means no clear call, values can overlap the other calls;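 further: 0% = vehicle wells and 100% = reference inhibitor control wells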
Target sequence (P9WHJ3 whole entry, looked up, canonical isoform): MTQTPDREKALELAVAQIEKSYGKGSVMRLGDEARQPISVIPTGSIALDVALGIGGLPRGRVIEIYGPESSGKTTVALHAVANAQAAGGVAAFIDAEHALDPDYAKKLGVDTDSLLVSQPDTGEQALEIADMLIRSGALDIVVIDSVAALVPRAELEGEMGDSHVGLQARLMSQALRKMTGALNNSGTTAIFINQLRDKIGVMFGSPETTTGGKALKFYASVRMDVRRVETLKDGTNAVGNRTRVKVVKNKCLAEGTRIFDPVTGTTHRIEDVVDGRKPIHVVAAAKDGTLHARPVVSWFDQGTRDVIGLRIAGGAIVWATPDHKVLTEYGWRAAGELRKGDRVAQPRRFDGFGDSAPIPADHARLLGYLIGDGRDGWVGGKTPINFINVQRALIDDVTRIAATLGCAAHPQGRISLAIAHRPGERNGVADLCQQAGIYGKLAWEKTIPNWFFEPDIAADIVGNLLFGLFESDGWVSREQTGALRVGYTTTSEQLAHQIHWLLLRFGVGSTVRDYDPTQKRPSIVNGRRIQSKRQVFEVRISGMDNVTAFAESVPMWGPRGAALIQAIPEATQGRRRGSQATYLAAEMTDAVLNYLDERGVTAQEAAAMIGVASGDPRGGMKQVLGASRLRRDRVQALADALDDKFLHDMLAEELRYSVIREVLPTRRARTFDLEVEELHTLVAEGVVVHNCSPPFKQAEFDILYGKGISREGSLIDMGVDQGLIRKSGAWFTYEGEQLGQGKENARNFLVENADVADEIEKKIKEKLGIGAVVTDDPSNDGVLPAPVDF
Mtb bLac sens: beta-lactam sensitization of Mtb H37Rv | M. tuberculosis H37Rv growth with meropenem, percent inhibition; hits of this screen are not shown here | inhibition, % at 25 µM | hit rate 0.27% among 330,000 | AID 434955;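 active means about 74% or more and at least 40 points above the plate without the antibiotic, then above 30% in a dose series; inconclusive means first-round hits that could not be retested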;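 further: growth measured after seven days incubation then overnight dye step; 0% = bacteria only wells and 100% = bacteria with antibiotic; twin plates without the antibiotic show which effects depend on it; some results filed as inactive read as strong as hits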
Mtb H37Rv: M. tuberculosis H37Rv growth inhibitors, H37Rv strain (AID 1626). M. tuberculosis H37Rv growth inhibition; higher % means a stronger effect. one-dose inhibition, % at 10 µM; IC50 in µM for titrated hits. hit rate 0.95% among 220,000;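 active means confirmed in a dose series; inconclusive means inhibition above 80% but not taken into the dose series; inactive means below 80% or under 30% at every dose of the series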;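 further: bacteria incubated seven days before Alamar blue readout; 0% = bacteria only wells and 100% = bacteria with antibiotic wells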
Arbovirus inh: blocks arbovirus infection | inhibition, % at 10 µM | hit rate 0.37% among 200,000 | AID 1251 | arbovirus infection cell-based antiviral screen;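 active means inhibition from about 30%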;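 further: bluetongue infection of BSR cells; cell survival read as ATP light after 72 h; 0% = infected wells without compound and 100% = uninfected wells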
YopH inh: blocks Yersinia enterocolitica YopH tyrosine phosphatase. fluorescence Ex485/Em525. inhibition, %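 (about 10 µM by stock and volumes)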. hit rate 0.16% among 140,000;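 active means inhibition of 50% or more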;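 further: controls were vehicle for no effect and minimum signal wells for full effect; inactives centre near -20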
Arbovirus inh repeat: also measured in Arbovirus inh; calls as there; inhibition, %; measured here: 10K subset replicate screen; many hits read low in the repeat;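 first of two repeat runs on a subset; 0% = infected and 100% = uninfected wells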
Starred values were filed as active, the others as inactive; u = inconclusive; x = no result given. Only part of the results is shown, so the mix of outcomes need not match the whole.

SMILES | RecA splice inh | Mtb bLac sens | Mtb H37Rv | Arbovirus inh | YopH inh | others
COc1ccc(C)cc1NC(=O)CSCc1ccccc1C | 7.7 | 2.6 | x | x | x
O=[N+]([O-])c1ccccc1CNc1ccc(F)c(Cl)c1 | 13.4 | 3.2 | 17.8% | -8.2 | -32.7
CS(=O)(=O)N(CC(=O)N1CCCCCC1)c1cccc(F)c1 | -1.6 | 2.5 | x | x | x
CN(C)c1ccc(/C=N/NC(=O)CNC(=O)c2ccc3c(c2)OCCO3)cc1 | -2.0 | 7.3 | 1.4% | -11.4 | x
Oc1ccc2ccccc2c1CNc1ccc(Br)cc1 | -9.4 | 5.2 | x | x | x
COC(=O)C1=C(C)N(C)C(=O)NC1c1ccc([N+](=O)[O-])o1 (stereo unspecified) | -14.3 | 20.5 | 6.6% | 11.6 | x
Cn1ccnc1SCC(=O)Nc1cccc(S(=O)(=O)N2CCCCCC2)c1 | -0.2 | -1.7 | -0.5% | 0.4 | x
COc1ccccc1CC(=O)N1CCN(C(=O)c2ccco2)CC1 | 0.1 | -4.1 | x | x | x
Cc1ccccc1N1CCN(C(=O)C2CCC(=O)N(C3CCCC3)C2)CC1 (stereo unspecified) | 2.3 | 5.8 | x | x | x
CCCC(=O)NNC(=O)Nc1ccccc1 | -3.2 | -5.8 | -5.4% | 9.5 | -31.7
CCOc1ccc(NS(=O)(=O)c2ccc3c(c2)n(C)c(=O)n3C)cc1 | 3.9 | 1.1 | x | x | x
O=C(Nc1cccc(NC(=O)c2ccccc2Cl)c1)c1ccc([N+](=O)[O-])o1 | -2.7 | 99.7 | x | x | x
Cc1cc(C(=O)CSc2ccc(Cl)cc2)cc(C)c1OC(=S)N(C)C | 2.3 | 32.3 | 0.7% | 7.2 | -8.2
COc1ccc(OCc2nnc(SCC(=O)Nc3nnc(C4CC4)s3)n2C)cc1 | 0.3 | 1.4 | x | x | x
Cc1cc(C)n2nc(SCn3nnc4ccccc4c3=O)nc2n1 | 0.2 | -5.2 | -6.5% | 10.0 | -28.7
NS(=O)(=O)c1ccccc1NC(=S)Nc1ccccc1S(N)(=O)=O | 0.3 | 3.7 | x | x | x
O=S(=O)(c1ccccc1Cl)N1CCCC1c1nc(-c2ccc(Cl)cc2)no1 (stereo unspecified) | 1.8 | 1.4 | -11.4% | -1.4 | -28.0
CCOC(=O)c1c(NC(=O)CC)sc(C(=O)NC2CCCC2)c1C | 0.2 | -4.6 | x | x | x
O=C(CC1CCCC1)Nc1cccc(Br)c1 | 8.0 | -4.8 | x | x | x
O=S(=O)(c1cccs1)N1CN(Cc2ccc(Cl)cc2)c2nc3ccccc3nc21 | x | -3.8 | -1.8% | -0.7 | -40.4
COc1ccc2cc(C(=O)NCC(=O)O)sc(=O)c2c1OC | -3.6 | x | x | 5.1 | -4.6
O=[N+]([O-])c1ccc(CS(=O)(=O)N2CCN(c3ccccc3)CC2)cc1 | -0.1 | -6.0 | x | x | x
CN(N)c1nc(-c2ccccc2)nnc1C(F)(F)F | 1.3 | -3.3 | 5.2% | -1.9 | -6.8
O=C(c1ccco1)N1CCN(Cc2cccc3ccccc23)CC1 | 3.2 | 3.8 | x | x | x
CC(=O)C[C@H]1c2cc(C(F)(F)F)ccc2S(=O)(=O)N1Cc1ccccc1 | 1.9 | -4.8 | 11.6% | x | x
C[C@@H](C(=O)NCc1ccccn1)[C@H]1C[C@]1(C)[C@H](NC(=O)OCc1ccccc1)c1ccccc1 | 6.3 | 1.0 | 0.7% | -7.9 | -22.5
O=C(COC(=O)c1n[nH]c2ccccc12)c1ccc(F)c(F)c1 | -3.7 | 4.5 | x | x | x
CCOC(=O)c1oc2cccc(O)c2c1CN1CCOCC1 | 1.0 | 7.1 | 1.9% | -1.0 | -21.1
Cn1c(=O)n(C/C=C/c2ccccc2)c(=O)c2c1nc1n2CCCN1c1ccc(F)cc1 | 3.2 | -1.4 | -2.5% | 7.5 | -35.1
O=c1[nH]c(C(Cl)Cl)nc2sc3c(c12)CCN(Cc1ccccc1)C3 | -56.8 | -4.4 | 0.3% | 11.5 | -24.3
Cc1nnc(NC2(C(F)(F)F)C(=O)Nc3c2c(=O)n(C)c(=O)n3C)s1 (stereo unspecified) | -2.5 | 13.3 | 3.2% | -1.8 | -41.3
Cc1ccc(OCCNC(=O)CNC(=O)c2ccc(C)c(C)c2)cc1 | 4.6 | -9.1 | x | x | x
CCC(C)[C@H](NS(=O)(=O)c1ccc(C)cc1)C(=O)N1CCC(C(=O)N2CCC(C(=O)OC)CC2)CC1 (stereo partly specified) | 0.6 | -5.7 | x | x | x
CC(C)[C@@H](N)C(=O)NCC1CCC(C(=O)N[C@@H](Cc2ccccc2)C(=O)O)CC1 (stereo partly specified) | -3.0 | -6.6 | x | x | x
COc1ccc2nc(NC(=O)c3ccc([N+](=O)[O-])o3)sc2c1 | -1.7 | 100.0 | x | x | x
COC(=O)c1cc(OC)c(OC)cc1NC(=S)Nc1cccc(C(C)=O)c1 | x | -1.4 | -1.0% | 0.3 | -18.5
COCCN1C=C(C(=O)OC)C(c2ccc(Cl)cc2)C(C(=O)OC)=C1 | -49.8 | -7.7 | -3.0% | -9.0 | x
COc1ccc(C2C(C#N)=C(C)NC3=C2S(=O)(=O)c2ccccc23)cc1 (stereo unspecified) | -2.3 | 3.5 | -9.3% | -5.2 | -13.2
Cn1c(=O)c(C(=O)NCCCc2ccccc2)c(O)c2ccccc21 | 0.1 | 5.4 | x | x | x
CCCCN(CC)CCNC(=O)c1nn(-c2ccc(OC)cc2)c(=O)c2c1c1ccccc1n2C | -1.1 | 38.5 | 3.2% | -15.7 | x
COc1ccc(Oc2nc(-c3ccccn3)ncc2OC)cc1 | -0.2 | 71.9 | u | -2.2 | x
COc1ccc(C(=O)Nc2ccnn2C2CCN(Cc3cnn(C)c3)CC2)cc1 | 1.4 | 4.0 | x | x | x
COc1ccc(OC)c(NC(=O)c2oc3ccccc3c2NC(=O)C2CC2)c1 | -4.5 | 0.4 | x | x | x
COC(=O)c1sc(NC(=O)COc2ccc(C)cc2)nc1C | -1.9 | -9.0 | -5.5% | 3.4 | -15.1
CCn1c(Cc2ccccc2)nnc1SCC(=O)NC1CCCC1 | -4.1 | -4.9 | -0.4% | 0.6 | x
CCc1nnc(NC(=O)CSc2nc3ccccc3s2)s1 | 1.8 | 1.1 | 5.1% | 6.4 | -45.1
COc1ccc(NS(=O)(=O)c2cccc(C(=O)OCC(=O)Nc3cc(C)on3)c2)cc1 | 1.7 | -4.7 | -3.4% | 3.1 | 5.2
COc1nc(C)cc(C)c1S(=O)(=O)c1ccccc1C | 0.7 | 6.6 | x | x | x
COc1ccc(N2CCN(C(=O)CSc3ccccc3)CC2)cc1 | -4.2 | -2.0 | -6.5% | 5.5 | -1.6 | Arbovirus inh repeat=5.4
CC1(C)OC(=O)C(=NNc2ccc(Cl)cc2)C(=O)O1 | 2.9 | 92.9 | 45.3% | -4.2 | -18.4
COc1ccc(N2CCN(CC(O)COc3c(OC)cccc3OC)CC2)cc1 (stereo unspecified) | -0.5 | -2.7 | x | x | x
Cc1cccc([C@@H]2[C@@H]3C(=O)N(Cc4ccccc4)C(=O)[C@@H]3[C@]3(CC(C)C)C(=O)N(c4cccc(Cl)c4)C(=O)N23)c1 | 4.0 | -16.6 | x | x | x
NS(=O)(=O)c1ccc(-c2ccc(/C=C3\SC(=S)N(C4CCS(=O)(=O)C4)C3=O)o2)cc1 (stereo unspecified) | 1.1 | 1.8 | -2.4% | x | x
Cc1ccc2[nH]c(=O)c(CN(CC3CCCO3)S(=O)(=O)c3cccc4nsnc34)cc2c1 (stereo unspecified) | 0.1 | 2.5 | 1.2% | -6.3 | -39.6
COc1ccc(OC)c(NC(=O)CSc2nc(N)c(-c3ccccc3)c(=O)[nH]2)c1 | 4.6 | 2.7 | 0.9% | 4.7 | -17.3
CCOC(=O)CSc1nnc(Cc2ccc(OC)cc2)n1-c1ccccc1 | 2.1 | -5.6 | -11.1% | 5.7 | -5.5
CN(C)CCC(=O)N1c2ccccc2Sc2ccc(C(F)(F)F)cc21 | 2.2 | -3.0 | x | x | x
COc1cc2cc(Oc3ccc4ccc(=O)oc4c3)c(=O)oc2cc1OC(=O)C=C(C)C | -81.3 | -1.0 | x | x | x
O=C(Nc1nnc(-c2ccccc2Cl)s1)c1ccccc1F | 0.7 | 4.5 | x | x | x
Cc1ccc(C(=O)CCC(=O)Nc2cccc(C(F)(F)F)c2)cc1C | -0.5 | 9.2 | 0.9% | x | -12.9
(further entries)
SMILES | RecA splice inh | Mtb bLac sens | Mtb H37Rv | Arbovirus inh | YopH inh | others
C=CCn1c(Cc2cccs2)nnc1SCC(=O)Nc1ccc(OC)c(OC)c1 | 2.7 | -3.9 | -9.3% | 12.8 | -32.5
CC(C)Nc1nc(-c2ccccc2)nnc1-c1ccccc1 | 5.8 | 13.2 | 16.6% | 4.3 | x
COc1ccccc1OCCn1nnc2ccccc21 | 1.5 | 5.1 | x | x | x
CCN(CC)C(=O)COc1ccc(/C(C)=N/NC(=O)c2ccccc2-n2cccc2)cc1 | 19.2 | -9.2 | x | x | x
C=CCNc1c2c(nc3ncnn13)CC(C)CC2 (stereo unspecified) | x | -10.0 | -0.9% | 5.5 | x
COCCN(C(=O)CSc1nc2ccc(OC)cc2[nH]1)c1c(N)n(Cc2ccccc2)c(=O)[nH]c1=O | 1.5 | -5.9 | x | x | x
O=C(CCN1C(=O)/C(=C/c2ccccc2)SC1=S)N1CCCCCC1 | 4.7 | 95.5 | x | x | x
COC(=O)/C=C1\SC(=NC(=O)c2ccc(C)cc2)NC1=O | 3.0 | 26.0 | 15.4% | 0.2 | x
CC1CCN(S(=O)(=O)c2ccc3c(c2)oc(=O)n3C)CC1 | -0.4 | 4.1 | x | x | x
CCOC(=O)c1sc(=NC(=O)c2ccccc2Br)n(C)c1C | 5.1 | -2.1 | x | x | x
COc1cccc(-c2nnc(SCC(=O)OC(C)C)n2N)c1 | -1.1 | -9.4 | -6.2% | 5.6 | -33.0
Cc1ccc(SCc2ccc(C(=O)Nc3nccs3)o2)cc1 | 7.5 | 96.5 | x | x | x
CC(CCc1ccccc1)NC(=O)CCC(=O)N1CCC(C(=O)O)CC1 (stereo unspecified) | -0.8 | 1.8 | x | x | x
CCC(c1nnnn1CCOC)N1CCN(Cc2ccccc2)CC1 (stereo unspecified) | -3.4 | 3.1 | -3.8% | 7.1 | -4.9
CCCCCCn1c(N2CCCC2)nc2c1c(=O)n(C)c(=O)n2C | 2.5 | 3.9 | x | x | x
O=C(Nc1ccc(Cl)cn1)c1ccccc1[N+](=O)[O-] | -0.5 | -1.1 | 6.5% | -9.6 | x
Cc1ccc(N(C(C)C(=O)Nc2c(C)n(C)n(-c3ccccc3)c2=O)S(C)(=O)=O)cc1C (stereo unspecified) | 0.4 | 5.1 | -0.5% | -2.4 | x
Cc1ccccc1CS(=O)(=O)Cc1ccc(C(=O)N2CCC3(CC2)OCCO3)o1 | 6.2 | -0.4 | x | 5.7 | 7.2
CCC1(C)C(Nc2c(C)cccc2C)=NC(=S)N1c1ccc(NC(C)=O)cc1 (stereo unspecified) | -1.8 | 7.3 | 1.1% | -1.4 | -17.6
CCn1c(CNC(=O)c2ccccc2Br)nnc1SCC(=O)Nc1nncs1 | -0.6 | 8.7 | x | x | x
O=C(O)c1cccc(Oc2ccc([N+](=O)[O-])cc2)c1 | x | 4.1 | 10.9% | 15.8 | -7.6
COc1ccc(/C=N/NC(=O)c2cc(-c3ccccc3)nc3ccccc23)c(OC)c1 | 2.7 | 8.3 | x | x | x
Cc1ccc(S(=O)(=O)N2CCCN(S(=O)(=O)c3ccc(C(F)(F)F)cc3)CC2)cc1 | -2.9 | -17.9 | -14.1% | 3.9 | -41.2
O=C(NC(=S)Nc1ncccn1)c1ccccc1Br | -0.2 | -23.4 | x | x | x
CC(=O)Nc1ccc(S(=O)(=O)N(C)CC(=O)OCC(=O)N(C)c2ccccc2)cc1 | -0.2 | 8.0 | x | x | x

Quoted at random: 5 compounds from above, in no set order.
SMILES | RecA splice inh | Mtb bLac sens | Mtb H37Rv | Arbovirus inh | YopH inh | others
COc1ccccc1CC(=O)N1CCN(C(=O)c2ccco2)CC1 | 0.1 | -4.1 | x | x | x
CCCC(=O)NNC(=O)Nc1ccccc1 | -3.2 | -5.8 | -5.4% | 9.5 | -31.7
COc1ccc(OC)c(NC(=O)CSc2nc(N)c(-c3ccccc3)c(=O)[nH]2)c1 | 4.6 | 2.7 | 0.9% | 4.7 | -17.3
COc1nc(C)cc(C)c1S(=O)(=O)c1ccccc1C | 0.7 | 6.6 | x | x | x
Cc1ccc(N(C(C)C(=O)Nc2c(C)n(C)n(-c3ccccc3)c2=O)S(C)(=O)=O)cc1C (stereo unspecified) | 0.4 | 5.1 | -0.5% | -2.4 | x
